Source: PubChem BioAssay (National Center for Advancing Translational Sciences (NCATS))
VACV mCherry inh: vaccinia inhibition (mCherry reporter); Vaccinia virus mCherry reporter infection, fluorescence; about a quarter of the inactives have no number; AID 720579; Potency, µM (top dose mostly 36.5 µM), for the others: at the highest dose activity change, negative = inhibition, usual class: inhibitors; 310,000 compounds, 0.63% hits; active = well fitted inhibition curve with a large enough effect; inconclusive = small, poorly fitted or top-dose-only effect; inactive = no such curve, though single readings can be large or run the other way; tested in A549 cells; further: nearly all actives have a fitted effect of over 35% in size; inactives centre near -10
VACV Venus inh: inhibitors of vaccinia virus (Venus reporter). 330,000 compounds, 0.46% hits. Vaccinia virus Venus reporter expression, fluorescence. Potency, µM (top dose mostly 36.5 µM), for inactives: at the highest dose activity change, negative = inhibition, most hits filed as inhibitors. AID 720580; active means well fitted inhibition curve with a large enough effect; inconclusive means small, poorly fitted or top-dose-only effect; inactive means no such curve, though single readings can be large or run the other way; tested in A549 cells; further: nearly all actives have a fitted effect of over 30% in size; inactives centre near -10
Starred values were filed as active, the others as inactive; i = inactive; ? = inconclusive; . = not tested or not shown; & = joins results of further samples. On the % scale 0 is the no-effect control and ±100 the full control effect; potency means the concentration at half of the fitted maximal effect.

SMILES	VACV mCherry inh	VACV Venus inh
O=C(COc1ccc(Br)cc1Cl)NC(=O)Nc1ccc2c(c1)OCCO2	-11.9%	-3.7%
COc1cc2c(C(=O)N(C)c3cc(Cl)ccc3OC)cn(CC(C)C)c(=O)c2cc1OC	-8.5%	0.5%
Cc1cc(C)n2nc(C(=O)OCC(=O)N(CCC#N)c3ccc(F)cc3)nc2n1	i	-7.0%
Oc1ccc(N2CCN(c3ncnc4sc5c(c34)CCC5)CC2)cc1	?	-25.6%
CC(=O)C1=C(C)N(Cc2ccccc2)C(=O)N[C@H]1c1cccc(C(F)(F)F)c1	?	-27.9%
Cn1c(=O)[nH]c(=O)c2c1ncn2CCN1CCCCC1	.	-11.8%
CCOc1ccc(N2C(=O)CC(NC3CCN(C(=O)c4cccc(Cl)c4)CC3)C2=O)cc1 (centres undefined)	-9.7%	5.8%
CC(OC(=O)c1cc2c(s1)CCCCC2)C(=O)NC(N)=O (centres undefined)	i	-0.6%
CCOC(=O)c1cccc(NC(=O)CCc2nc(-c3ccccc3F)no2)c1	.	-25.9%
CCc1cc2c(=O)c(-c3nc4ccccc4n3C)coc2c(CN2CCCC(C)C2)c1O (centres undefined)	-2.3%	4.2%
COc1ccc2c(c1)C(=O)O[C@@H](c1ccccc1)C[C@@H](O)C(=O)CC2	-15.9%	0.4%
CCCc1nc(C)c(-c2ccc(OC)c(OC)c2)c(=O)[nH]1	.	?
COc1ccc(C(=O)NCC(=O)N2CCN(c3ccccc3)CC2)cc1	6.9%	7.3%
COc1cc(CNC(C)C)ccc1OCC(=O)Nc1cccc2ccccc12	-9.0%	-25.1%
N#Cc1ccc(-c2nc3ccc(Cl)cn3c2Cc2ccsc2)cc1	10.0%	-10.6%
Cc1ccc(NC(=O)CSc2nc(C)c(Cc3ccccc3)c(=O)[nH]2)cc1	5.3%&4.8%	-2.2%&-0.7%
COc1ccccc1C(=O)N1CCN(Cc2c[nH]c3ccccc23)CC1	-4.2%	-12.3%
COc1cc(-c2nnc(COC(=O)c3cccn3C)o2)cc(OC)c1OC	-22.1%	-23.0%
O=C(Nc1cccnc1)C1CC(c2ccc(Cl)c(Cl)c2)=NO1 (centres undefined)	i	-16.1%
O=C(Nc1ccccc1)N(CCCN1CCOCC1)Cc1ccccc1F	.	-8.5%
Cc1cc(C)c2[nH]c(=O)c(C(c3nnnn3Cc3ccc4c(c3)OCO4)N3CCCCC3)cc2c1 (centres undefined)	.	-5.3%
COc1cccc(C(=O)NCCS(=O)(=O)N2CCC3(CC2)OCCO3)c1	-7.5%	-0.6%
O=[N+]([O-])c1ccc(Nc2ccccc2)nc1	-17.5%	-12.7%
Cc1ccccc1/C=C1\SC(=S)N(/N=C/c2cc([N+](=O)[O-])ccc2O)C1=O	-17.0%	-19.5%
CCOC(=O)C1=C(C)NC(=O)NC1c1cccs1 (centres undefined)	i	-12.9%
CC[C@]12c3[nH]c4cc(-c5ccco5)ccc4c3CCN1C(=O)[C@@H](CC(=O)NCCCOC)C[C@@H]2C(=O)N1CCN(C(=O)c2ccco2)CC1	-1.4%	-24.2%
COc1ccc(OC)c2sc(N3CCN(c4ccccc4)CC3)nc12	i	-14.3%
COC(=O)CSC1=C(C#N)C(c2cccc(OC)c2)CC(=O)N1 (centres undefined)	-19.2%	-21.1%
COc1ccc(C(C(=O)NCC2CCCO2)N(C(=O)CNC(=O)c2cccs2)c2ccccc2C)cc1OC (centres undefined)	2.9%	-3.5%
Cc1cc2ncc(S(=O)(=O)c3ccccc3)c(N)n2n1	i	-4.2%

For convenience, 4 of the compounds above:
SMILES	VACV mCherry inh	VACV Venus inh
COc1ccccc1C(=O)N1CCN(Cc2c[nH]c3ccccc23)CC1	-4.2%	-12.3%
COc1cc(-c2nnc(COC(=O)c3cccn3C)o2)cc(OC)c1OC	-22.1%	-23.0%
O=C(Nc1cccnc1)C1CC(c2ccc(Cl)c(Cl)c2)=NO1 (centres undefined)	i	-16.1%
O=C(Nc1ccccc1)N(CCCN1CCOCC1)Cc1ccccc1F	.	-8.5%

More structures follow.
SMILES	VACV mCherry inh	VACV Venus inh
O=C(CNC(=O)c1ccc(Br)o1)Nc1ccc(F)c(S(=O)(=O)N2CCOCC2)c1	-10.0%	-9.7%
O=C(Nc1ccccn1)c1cccc(S(=O)(=O)N2CCCCC2)c1	.	-20.5%
CC1CN(C(=S)c2cccc([N+](=O)[O-])c2)CC(C)O1 (centres undefined)	-3.3%	6.3%
COc1ccc(S(=O)(=O)NCC(c2ccco2)S(=O)(=O)c2ccc(C)cc2)cc1F (centres undefined)	-12.7%	-14.4%
CCOC(=O)c1sc(NC(=O)CCCn2nc([N+](=O)[O-])c(Cl)c2C)c(C(=O)OCC)c1C	-14.8%	-8.1%
CCOC(=O)C1CCN(C(=O)Cn2nc(C)c3c(C)n(-c4ccccc4)nc3c2=O)CC1	i	-1.2%
O=C1CSC(c2cn(-c3ccccc3)nc2-c2ccccc2)N1Cc1ccco1 (centres undefined)	.	-29.1%
COc1ccc(OC)c(-c2nnc(SCC(=O)N3CCCc4ccccc43)o2)c1	.	-7.3%
COc1ccc(N2CCN(C(=O)c3ccc4c(Cl)c5c(nc4c3)CCCC5)CC2)cc1	?	?
O=C1CC(Nc2cc(=O)[nH]c(=O)[nH]2)C(=O)N1c1ccccc1Cl (centres undefined)	-4.7%	-5.3%

7 structures out of the list, sorted by formula weight, highest first:
SMILES	VACV mCherry inh	VACV Venus inh
COc1ccc(C(C(=O)NCC2CCCO2)N(C(=O)CNC(=O)c2cccs2)c2ccccc2C)cc1OC (centres undefined)	2.9%	-3.5%
CCOc1ccc(N2C(=O)CC(NC3CCN(C(=O)c4cccc(Cl)c4)CC3)C2=O)cc1 (centres undefined)	-9.7%	5.8%
COc1ccc(S(=O)(=O)NCC(c2ccco2)S(=O)(=O)c2ccc(C)cc2)cc1F (centres undefined)	-12.7%	-14.4%
CC(=O)C1=C(C)N(Cc2ccccc2)C(=O)N[C@H]1c1cccc(C(F)(F)F)c1	?	-27.9%
COc1ccc(OC)c2sc(N3CCN(c4ccccc4)CC3)nc12	i	-14.3%
O=C(Nc1cccnc1)C1CC(c2ccc(Cl)c(Cl)c2)=NO1 (centres undefined)	i	-16.1%
CCOC(=O)C1=C(C)NC(=O)NC1c1cccs1 (centres undefined)	i	-12.9%

Next part.
SMILES	VACV mCherry inh	VACV Venus inh
CCCCCCN1C[C@H](O)[C@@H](n2cc(-c3ccc(F)cc3)nn2)C[C@@H]1c1ccccc1	-2.2%	-12.9%
CCOC(=O)c1c(NC(=O)C2C3C=CC(C3)C2C(=O)O)sc2c1CCC(CC)C2 (centres undefined)	-14.6%	?
Cc1ccc(S(=O)(=O)N2CCN(C(=O)c3ccccc3)C2C(C)C)cc1 (centres undefined)	-13.7%	-9.7%
Cc1ccc(N(CC(=O)Nc2ccc(Br)c(C)c2)S(=O)(=O)c2cccs2)cc1	-20.5%	-18.7%
COC(=O)c1sc2nc(SCc3ccccc3C)n(N)c(=O)c2c1C	-4.8%	-0.4%
O=c1[nH]c(C2CCN(S(=O)(=O)c3ccccc3C(F)(F)F)CC2)nc2c1nnn2Cc1cccc(F)c1	-17.3%	-23.0%
CCOc1ccc(C2C(=O)N(C3CCCCC3)CC(=O)N2Cc2ccc(F)cc2)cc1OC (centres undefined)	-2.8%	-12.0%
CCOC(=O)c1ccc(-c2ccc3[nH]c4ccccc4c(=O)c3c2)cc1F	-14.2%	-6.6%
Cc1ccc(S(=O)(=O)N2CCC(C(=O)N3CCc4ccccc43)CC2)cc1C	-11.0%	-2.4%
Cc1noc(C)c1NC(=O)N(C)C[C@@H]1Oc2ccc(NC(=O)Cc3cn(C)c4ccccc34)cc2CC(=O)N([C@H](C)CO)C[C@@H]1C	-24.3%	-7.5%
CCOC(=O)N1CCN(C(=O)c2ccccc2NC(=O)c2ccccc2Cl)CC1	-13.5%	-4.5%
O=C(CNC(=O)C12CC3CC(CC(C3)C1)C2)OCc1cc(=O)n2cc(Br)ccc2n1	-2.3%	4.4%
O=c1c2c(nc3nc(NCc4ccc(Cl)cc4)[nH]n13)CCC2	i	-3.3%
CCCCC(=O)OC1CCC2C3CCc4cc(O)ccc4C3CCC12C (centres undefined)	-8.6%	-16.3%
CC1CCCN(CCCNC(=O)c2ccc3c(c2)N(Cc2ccccc2F)C(=O)c2ccccc2S3(=O)=O)C1 (centres undefined)	?	-26.3%
CCc1ccc(Sc2cc(C(=O)NCCCN3CCC(C)CC3)c3ccccc3n2)cc1	-14.9%	-20.7%
S=c1[nH]c2cc(-c3ccccc3)ccc2o1	-4.2%	-10.3%
COc1cc(OC)c(C(=O)Nc2cc(S(=O)(=O)N3CCOCC3)ccc2N2CCOCC2)cc1OC	-8.1%	-7.5%
O=C(CNS(=O)(=O)c1ccc(Br)s1)NCc1ccc(F)cc1	-5.2%	-9.9%
Fc1ccc2[nH]c3c(N4CCN(Cc5ccc6c(c5)OCO6)CC4)ncnc3c2c1	.	6.31µM*
Cc1cccc(N2CCN(C(=O)C(C)n3nc(C)n4c(cc5occc54)c3=O)CC2)c1C (centres undefined)	-25.1%	-20.9%
O=C(CSc1n[nH]c(-c2cccs2)n1)N1CCCCC1	-10.6%	-11.0%
CN(Cc1ccccc1)C(=O)C1CCN(Cc2ccc(F)cc2)CC1	-11.0%	-9.9%
O=C(CCN1C(=O)c2ccccc2C1=O)NCc1ccc(Cl)cc1	-2.2%	-6.7%
COC(=O)c1sc(-c2cccs2)cc1NC(=O)/C=C/C(=O)O	-0.5%	-18.4%
COC(=O)c1ccc(S(=O)(=O)N(CCO)Cc2ccccc2)n1C	-20.0%	-13.5%
NS(=O)(=O)c1ccc(NC(=O)COc2cccc3ccccc23)cc1	i	-15.5%
CCOC(=O)C(C)c1nn(C)c(=O)c2ccccc12 (centres undefined)	-14.1%	-11.6%
NNc1nc(-c2ccccc2Cl)nc2sc3c(c12)CCCC3	-0.9%	-24.1%
Cc1cccc(C(=O)N2CCc3cc(-c4nc(NC(=O)CN5CCCC5)sc4C)ccc32)c1	?	-28.5%
Cc1ccc(-c2cnc(C3CC3)o2)cc1S(=O)(=O)Nc1cccc(C)c1C	-17.1%	-7.5%
O=C(CSc1ccccn1)Nc1ccc(F)c([N+](=O)[O-])c1	i	-13.6%
COC(=O)c1cccn(CC(=O)c2ccc(Cl)cc2)c1=O	0.3%	-3.6%
Cc1ccccc1CSc1nc2cc(C(=O)NC3CCCC3)ccc2c(=O)n1Cc1ccccc1	-9.0%	-7.5%
COC(=O)C1CCCCN1Cc1ccc2c(c1)CN(Cc1cnn(-c3ccccc3)c1)CCO2 (centres undefined)	-7.0%	-6.3%
COc1ccc(N(C(=O)c2ccc(C)cc2)S(=O)(=O)c2ccc(Cl)cc2)cc1	-15.1%	-1.3%
NC(=O)c1ccccc1NC(=O)CCN1C(=O)c2ccccc2C1=O	-0.8%	-4.2%
CC(=O)Nc1cccc(NC(=O)CSc2nnc3ccc(-c4ccncc4)nn23)c1	-13.3%	-11.7%
CCN(CC)C(=O)NC1CC(=O)N(c2ccc(OC)cc2)C1 (centres undefined)	-12.2%	-11.6%
Cn1cc2c(=O)n(/N=C/c3ccccc3)cnc2n1	i	7.5%
COc1cc(C)c(Br)cc1S(=O)(=O)NCCCN1CCOCC1	-4.9%	5.3%
CCc1nnc(NC(=O)c2nc(SCc3ccc(F)cc3)ncc2Cl)s1	0.7%	6.8%
O=C(c1ccc(Cl)c([N+](=O)[O-])c1)N1CCN(c2ccccc2)CC1	-17.7%	-17.3%
Cc1ccccc1NC(=S)NC1CCCC1	-16.5%	-5.0%
COc1ccc(S(=O)(=O)NCc2cccnc2)cc1C(=O)NC1CCCCC1	-1.7%	-14.9%
CCCc1cnc2c(c1SCC(=O)Nc1ccc([N+](=O)[O-])cc1)c(=O)n(C)c(=O)n2C	-11.1%	?
CCCCOc1ccc(C(=O)NCC(=O)NCC(c2ccc(OC)cc2)N2CCCC2)cc1 (centres undefined)	?	-21.7%
CCc1noc(C)c1C(=O)Oc1ccc(N(C)S(=O)(=O)c2ccccc2)cc1	-20.9%	-15.2%
COc1ccc(NC(=O)CN(C)S(=O)(=O)c2ccc3c(c2)CCCN3C(C)=O)cc1Cl	-19.7%	-24.6%
NC(=O)c1c(N)sc2c1CCC2	i	-15.0%
Continued.
SMILES	VACV mCherry inh	VACV Venus inh
CCCCCCCCCCCCN1C/C(=C\C(=O)OCC)c2ccccc2S1(=O)=O	-3.4%	-2.1%&-9.5%
CCN1CCCC1Cn1cnc2c([nH]c3ccc(OC)cc32)c1=O (centres undefined)	-0.7%	-13.3%
Cn1c(SCC(=O)Nc2ccc3c(c2)oc2ccccc23)nnc1-c1ccccc1	-33.1%	?
CC1CCN(CCCNC(=O)CCc2nnc3n(CCc4ccccc4)c(=O)c4ccccc4n23)CC1	-11.2%	-9.4%
CN(CC(=O)Nc1cccc(F)c1)C(=O)CCc1nc2sc3c(c2c(=O)[nH]1)CCCC3	?	-28.4%
O=c1cc(CN(Cc2ccccc2)Cc2ccccc2)c2ccccc2o1	i	1.1%
CCCN(CCC)Cc1c(C(=O)N/N=C/c2cccs2)nnn1-c1nonc1N	-27.6%	-15.0%
Cc1csc(NC(=O)c2nn(C)c(C)c2[N+](=O)[O-])n1	-18.6%	-27.4%
C=CCn1cccc(C(=O)Nc2ccc(OC)cc2)c1=O	i	0.9%
Cc1ccc(NC(=O)Cn2cncc2-c2ccc([N+](=O)[O-])cc2)cc1C	i	-7.8%
O=C(COC(=O)c1cccnc1Cl)NCc1ccc2c(c1)OCO2	-9.5%	-3.2%
O=C(c1cc(COc2ccc3ncccc3c2)on1)N1CCCC(O)C1 (centres undefined)	-9.7%	-27.9%
Cc1cc(Br)ccc1SCC(=O)Nc1cccnc1	-4.2%	-14.0%
CCC(=O)Nc1ccccc1-c1nc2ccccc2[nH]c1=O	-11.5%	-8.4%
Cc1nc2ccc(N=NC3=C(O)CCCC3=O)cc2s1	i	-2.7%
